KCNQ2 inh = KCNQ2 potassium channel inhibitors, primary screen, cell-based, CHO-K1, FluxOR thallium flux, B-score (AID 2156); O88943; 20 min; hits give low values; only compounds with negative scores are shown here; some inactives read as strong as hits; B-score at 10 µM; 1.1% of 310,000 active;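 active = fluorescence ratio B-score at most minus 3 library SDs, with starting brightness B-score within 2 library SDs, cut at about -5.5 in these data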
Target sequence (O88943 whole entry, looked up): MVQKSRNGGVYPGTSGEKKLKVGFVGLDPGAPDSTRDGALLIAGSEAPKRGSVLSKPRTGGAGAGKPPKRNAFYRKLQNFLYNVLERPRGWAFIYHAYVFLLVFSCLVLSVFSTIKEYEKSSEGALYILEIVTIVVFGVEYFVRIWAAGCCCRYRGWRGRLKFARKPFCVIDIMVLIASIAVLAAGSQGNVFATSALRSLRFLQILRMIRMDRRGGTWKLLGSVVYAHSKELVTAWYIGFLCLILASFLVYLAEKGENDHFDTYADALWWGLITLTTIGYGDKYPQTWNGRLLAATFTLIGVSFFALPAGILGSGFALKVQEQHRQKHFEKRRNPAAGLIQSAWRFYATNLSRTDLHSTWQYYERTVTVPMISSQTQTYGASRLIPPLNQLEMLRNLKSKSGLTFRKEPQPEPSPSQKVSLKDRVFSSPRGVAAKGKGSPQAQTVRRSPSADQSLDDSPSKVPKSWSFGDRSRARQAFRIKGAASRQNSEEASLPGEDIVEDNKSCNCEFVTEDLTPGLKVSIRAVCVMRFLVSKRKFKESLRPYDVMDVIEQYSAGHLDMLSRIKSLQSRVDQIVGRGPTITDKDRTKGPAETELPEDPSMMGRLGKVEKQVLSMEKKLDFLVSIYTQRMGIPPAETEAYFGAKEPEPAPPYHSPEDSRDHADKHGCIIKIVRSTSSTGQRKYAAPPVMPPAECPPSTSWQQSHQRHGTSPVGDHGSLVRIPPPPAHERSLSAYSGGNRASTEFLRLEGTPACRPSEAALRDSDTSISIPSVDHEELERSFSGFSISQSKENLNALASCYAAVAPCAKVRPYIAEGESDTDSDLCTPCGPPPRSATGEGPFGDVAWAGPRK
KCNQ2 inh baseline = further read-out of KCNQ2 inh, marked with its call; B-score; measured here: initial fluorescence intensity artifact check;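 brightness before thallium and not channel activity; 0 = typical well and far values either way flag optical interference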
Active calls of the source: *; i = inactive. A portion of the library. The share of hits here may be higher or lower than overall.

nr | canonical_smiles | KCNQ2 inh baseline | KCNQ2 inh
1 | O=[N+]([O-])c1ccc(N2CCN(C(=S)Nc3cccc(F)c3)CC2)cc1 | 0.11 | i
2 | O=C(CCn1c2c(c3ccccc31)CCCC2)NNC(=O)c1ccc(Cl)c([N+](=O)[O-])c1 | -0.17 | i
3 | CN1CCN(CCC(=O)N/N=C/c2cc([N+](=O)[O-])ccc2OC(F)F)CC1 | 1.2 | i
4 | CCN(CC)CCNC(=O)c1cc(S(=O)(=O)N2CCc3ccccc32)cn1C | 0.35 | i
5 | O=C(Nc1ccc(Cl)cc1)c1cc(Br)ccc1OCC(=O)N1CCOCC1 | 2.2 | i
6 | O=C1c2ccccc2CN1Cc1ccccc1 | -0.05 | i
7 | CCOC(=O)c1ccc2nc(NC(=O)c3cccs3)sc2c1 | -0.22 | i
8 | O=C(Oc1ccc(Br)cc1C(=S)N1CCCC1)c1ccccc1Cl | 0.44 | i
9 | CCC(=O)NC(NCC1CCCO1)C(Cl)(Cl)Cl (stereo not given) | 0.33 | i
10 | COCCCNC(=O)Cc1ccc(-n2c(C)nc3cccnc32)cc1 | 0.59 | i
11 | O=S(=O)(NC1CC2CCC1C2)c1ccc(Br)s1 (stereo not given) | -0.26 | i
12 | Cn1c(=O)c2cc(S(=O)(=O)NC(C(=O)NCc3cccnc3)c3ccccc3)ccc2n(C)c1=O (stereo not given) | 0.53 | i
13 | COc1c(N2CCN(C(=S)Nc3ccccc3F)C(C)C2)c(F)cc2c(=O)c(C(=O)O)cn(C3CC3)c12 (stereo not given) | 1.1 | i
14 | CSc1cnc2c(=O)[nH]c(=O)n(C)c2n1 | -0.73 | i
15 | CN(Cc1ccccc1)S(=O)(=O)c1ccc(S(=O)(=O)N(Cc2ccc(F)cc2)C2CCCC2)cc1 | -0.51 | i
16 | CC(=O)Nc1ccc(NC(=O)C(=O)NCC(c2ccco2)N2CCc3ccccc3C2)cc1 (stereo not given) | -0.64 | i
17 | C=CCSc1nc2ccccc2c(=O)n1Cc1ccccc1 | 1.4* | -5.7*
18 | CC(C(=O)N1CCCCCC1)N(c1ccc(Cl)cc1)S(C)(=O)=O (stereo not given) | 0.92 | i
19 | Nc1c(C(=O)c2ccccc2)oc2ccccc12 | 1.1 | i
20 | CC(=O)N=c1sc(C(C)(C)C)c(C)n1C | -0.29 | i
21 | COc1cc(C2CC(=O)c3cnc(NC(=O)COc4ccccc4)nc3C2)cc(OC)c1OC (stereo not given) | -0.64 | i
22 | N#Cc1ccc(CSc2nnc(NC(=O)CN3C(=O)C4CC=CCC4C3=O)s2)cc1 (stereo not given) | 0.01 | i
23 | O=C1CC(c2ccccc2)CN1C(=O)c1cncc(Br)c1 (stereo not given) | -1.2 | i
24 | COC(=O)c1nnn(CC(=O)NC(=O)Nc2c(C)cccc2C)c1C(=O)OC | 0.92 | i
25 | CCCSc1oc(-c2ccco2)nc1S(=O)(=O)c1ccccc1 | 1.1 | i
26 | CCOc1ccc(S(=O)(=O)NCCC(=O)Nc2nnc(C)s2)cc1 | -0.57 | i
27 | O=S(=O)(NC1CC1)c1ccc(F)c(F)c1 | -0.25 | i
28 | COc1ccc(OC)c(C(=O)CSc2nnc(-c3cccs3)o2)c1 | 1.9 | i
29 | COc1ccc(C(=O)Nc2cc(C(=O)NCCc3ccccc3)ccc2Cl)cc1 | 2.4 | i
30 | O=C(Nc1ccc2c(c1)CCC2)c1cc(=O)[nH]c2ccccc12 | 0.29 | i
31 | COc1ccc(NC(C)=O)cc1NC(=O)CN1CCN(C2c3ccccc3-c3ccccc32)CC1 | -1 | i
32 | CCCOc1ccc(-c2c(C(=O)N/N=C/c3ccc(OCC)cc3)nnn2-c2nonc2N)cc1 | 2.3 | i
33 | CN(C(=O)c1ccc(S(=O)(=O)N2CCCC2)cc1)C1CCS(=O)(=O)C1 (stereo not given) | -0.33 | i
34 | Cc1ccc(SCCC(=O)Nc2ccccc2Br)cc1 | 1.7 | i
35 | Cc1cccc(CN2C(=O)c3ccccc3Sc3ccc(C(=O)NCCCN4CCOCC4)cc32)c1 | -0.58 | i
36 | Cc1ccc2nc(SCc3cn4cccnc4n3)[nH]c2c1 | -0.14 | i
37 | COc1ccccc1OCc1nc2ccccc2[nH]1 | -0.97 | i
38 | CC(=O)Nc1ccc(/C=N/NC(=O)c2cc3cc(C)ccc3nc2C)cc1 | 0.42 | i
39 | CC(C)(C)[C@@H]1C=C(C(=O)N2CCN(Cc3ccccc3)CC2)O[C@H](OCCCCO)C1 | -0.27 | i
40 | Cc1ccsc1CN(C)C(=O)C1CCC(=O)N(CCc2cccc(F)c2)C1 (stereo not given) | -0.1 | i
41 | Cc1ccc(S(=O)(=O)N2CCOCC2)cc1NC(=O)COC(=O)C1=COCCO1 | 2 | i
42 | CN1CCN(c2ccccc2NC(=O)c2cc(Br)ccc2Cl)CC1 | -0.06 | i
43 | CCCOc1cc(C)c(S(=O)(=O)n2nnc3ccccc32)cc1C | -1.1 | i
44 | CC(C)c1ccc(Nc2ncccc2C#N)cc1 | 1.4 | i
45 | c1ccc(-c2onc3c2CCCC3)cc1 | -0.95 | i
46 | COc1cccc(/C=N/NC(=O)c2ccc(=O)[nH]n2)c1O | -1.3 | i
47 | Cc1ccc(Oc2ccc(OCC(=O)NC3CCS(=O)(=O)C3)cc2)cc1 (stereo not given) | -0.25 | i
48 | COC(=O)c1ccccc1NC(=O)C1CCCCC1C(=O)O (stereo not given) | 1.3 | i
49 | CCCc1cc(=O)oc2cc(C)cc(OC(C)C(=O)NCCCn3ccnc3)c12 (stereo not given) | 1.2 | i
50 | O=C(CCC(=O)N1CCSc2ccccc21)NCc1cccc(Cl)c1 | -0.08 | i
51 | O=C(CN1CCc2cc3c(cc2C1)OCCCO3)Nc1cccc([N+](=O)[O-])c1 | 4.6 | i
52 | CCOP(=O)(OCC)C(Nc1cccc(C)c1)c1ccc(F)cc1 (stereo not given) | -0.4 | i
53 | N/C(=N\OC(=O)CCc1ccccc1)c1ccccc1Cl | -0.62 | i
54 | CCc1ccc(N=CC2=C(O)CC(c3ccco3)CC2=O)cc1 (stereo not given) | 0.93 | i
55 | Cc1noc(/C=C/N(C)C)c1S(=O)(=O)N1CCCC(C(=O)NCCC2=CCCCC2)C1 (stereo not given) | -0.22 | i
56 | Cc1ccc(C)c(N2CCN(C(c3ccc(N(C)C)cc3)c3nnnn3C(C)(C)C)CC2)c1 (stereo not given) | 0.03 | i
57 | O=P1(O)C=C(c2ccccc2)NC(c2ccccc2)=C1 | -0.06 | i
58 | O=C1c2ccncc2C(=O)N1CO | -1.7 | i
59 | Cc1cc(NC(CC(C)C)C(=O)O)nc(Cc2ccccc2)n1 (stereo not given) | 0.68 | i
60 | CC1CC2c3cccc(C(=O)O)c3C(=O)N2c2ccc(Cl)cc21 (stereo not given) | 1.6 | i

Among those listed so far, these contain an aryl methoxy group.
nr | canonical_smiles | KCNQ2 inh baseline | KCNQ2 inh
13 | COc1c(N2CCN(C(=S)Nc3ccccc3F)C(C)C2)c(F)cc2c(=O)c(C(=O)O)cn(C3CC3)c12 (stereo not given) | 1.1 | i
21 | COc1cc(C2CC(=O)c3cnc(NC(=O)COc4ccccc4)nc3C2)cc(OC)c1OC (stereo not given) | -0.64 | i
28 | COc1ccc(OC)c(C(=O)CSc2nnc(-c3cccs3)o2)c1 | 1.9 | i
29 | COc1ccc(C(=O)Nc2cc(C(=O)NCCc3ccccc3)ccc2Cl)cc1 | 2.4 | i
31 | COc1ccc(NC(C)=O)cc1NC(=O)CN1CCN(C2c3ccccc3-c3ccccc32)CC1 | -1 | i
37 | COc1ccccc1OCc1nc2ccccc2[nH]1 | -0.97 | i
46 | COc1cccc(/C=N/NC(=O)c2ccc(=O)[nH]n2)c1O | -1.3 | i

Next part.
nr | canonical_smiles | KCNQ2 inh baseline | KCNQ2 inh
61 | CC(=O)c1cccc(NC(=O)CN(C)S(=O)(=O)c2ccccc2)c1 | -0.01 | i
62 | CCOc1ccc(C(C)C)cc1S(=O)(=O)n1nc(C)cc1C | -0.81 | i
63 | CCNc1ccccc1CP(=O)(c1ccccc1)c1ccccc1O (stereo not given) | -1.4 | i
64 | CCn1nc(C(=O)Nc2ccc(C)c(C)c2)c(Cl)c1Cl | 0.13 | i
65 | CC1(C)CN(c2ccsc2C(=O)O)C1=O | 0.79 | i
66 | CCN(CC)C(=O)C1CCCN(c2ccc([N+](=O)[O-])cc2/C=N/NC(=O)c2cccc([N+](=O)[O-])c2)C1 (stereo not given) | 0.7 | i
67 | Cc1ccc(-n2nc(C(=O)O)c3ccccc3c2=O)cc1C | -0.06 | i
68 | Cc1cc(-n2cnc(-c3cn[nH]c3C)n2)no1 | -2.2 | i
69 | COc1cccc(C(=O)/C=C/c2ccc(SC)cc2)c1 | 4.2 | i
70 | C/C(=N\NC(=O)c1ccccc1)c1ccc(C)c([N+](=O)[O-])c1 | -0.07 | i
71 | Cc1ccc(C(=O)N2CCC(C(=O)Nc3cccc([N+](=O)[O-])c3)CC2)cc1 | -0.35 | i
72 | CCc1ccc(N(C(=O)c2ccco2)C(C(=O)NC2CCCC2)c2ccco2)cc1 (stereo not given) | 1 | i
73 | O=C(Cc1sc(Nc2ccccc2)nc1-c1ccccc1)NCc1ccccc1 | -0.18* | -7.1*
74 | COc1ccccc1CNC(=O)CCC(=O)N1CCOc2ccc(Cl)cc21 | 0.43 | i
75 | CS(=O)(=O)N(CC(=O)Nc1ccccc1)Cc1ccc(Cl)cc1 | 0.65 | i
76 | CC(C)Oc1ccc(CNS(=O)(=O)c2csc(C(N)=O)c2)cc1 | 0.03 | i
77 | O=C(CNC(=S)N(Cc1ccccc1Cl)C1CCCC1)NCCN1CCOCC1 | -1 | i
78 | O=C(CSc1nc2c(cnn2-c2ccccc2)c(=O)[nH]1)N1N=C(c2cccs2)CC1c1ccc(F)cc1 (stereo not given) | -1.1 | i
79 | Nc1ccc(Sc2cnn(-c3ccccc3)c(=O)c2Cl)cc1 | 0.09 | i
80 | Nc1ccc2nc(C(F)(F)F)[nH]c2c1 | 0.01 | i
81 | COc1ccc([C@@H]2Sc3ccccc3NC(=O)[C@@H]2O)cc1 | 0.28 | i
82 | CN(C)S(=O)(=O)c1cccc(NC(=O)COC(=O)CNC(=O)c2cccc([N+](=O)[O-])c2)c1 | -0.15 | i
83 | CN(CC(=O)Nc1ccccc1N1CCOCC1)CC(=O)Nc1ccc(F)c(F)c1F | -0.2 | i
84 | Cc1ccc(C)c(NC(=O)CCN2CCN(C)CC2)c1 | -0.06 | i
85 | Cc1[nH]n(-c2ccccc2)c(=O)c1C=Nc1ccc(S(=O)(=O)N=C(N)N)cc1 | 1.2 | i
86 | O=C(Nc1ccc(Cl)c([N+](=O)[O-])c1)c1ccc(NCCCN2CCOCC2)c([N+](=O)[O-])c1 | 0.11 | i
87 | CCOc1ccc(Nc2oc(-c3cccc(Cl)c3)nc2C#N)cc1 | -0.99 | i
88 | CN1CCN(C2Cc3cc(Cl)ccc3Sc3cc(F)ccc32)CC1 (stereo not given) | 2.1* | -6.9*
89 | O=C(CSc1cccc2cccnc12)N/N=C/c1cccnc1 | 0.84 | i
90 | CCc1c(C)nc(SCC(=O)c2ccc(C)c(C)c2)[nH]c1=O | 0.61 | i
91 | CC(C)CN(CC(C)C)C(=O)Cc1coc2ccc3ccccc3c12 | -0.14* | -8.4*
92 | CC(OC(=O)c1ccccc1O)C(=O)Nc1cccc(Cl)c1 (stereo not given) | 0.75 | i
93 | NC(=O)c1ccccc1N | 2.1 | i
94 | COc1ccc(-c2nc3c(n2O)CCCC3=O)cc1OC | 0.61 | i
95 | CS(=O)c1nc(-c2ccc(Br)cc2)cc(-c2ccccc2)c1C#N (stereo not given) | -1.2 | i
96 | CN1C(=O)CSc2ccc(NC(=O)Nc3ccccn3)cc21 | 0.21 | i
97 | Nc1cccc(P(=O)(c2ccccc2)c2ccccc2)c1 | 0.74 | i
98 | Cc1nn(-c2ccccc2)c(N)c1C(O)(CC(=O)C(F)(F)F)C(F)(F)F (stereo not given) | -0.63 | i
99 | Brc1ccc(Oc2ncc(CN3CCOCC3)s2)cc1 | 2.9 | i
100 | CN(CCc1ccccn1)S(=O)(=O)c1ccc(F)cc1 | 0.19 | i
101 | Nc1nc2nc(SCC(=O)N3CCCc4ccccc43)[nH]c2c(=O)[nH]1 | 0.13 | i
102 | CCCCCCCOc1ccc(-c2ccc(C#N)cn2)cc1 | 0.64 | i
103 | O=C1NN(c2ccc(F)cc2)C(=O)/C1=C/c1cccs1 | 1 | i
104 | COCCN(C(=S)Nc1cc(C)cc(C)c1)C(C)c1cccnc1 (stereo not given) | -2.6 | i
105 | CCCCN(C(=O)NC(=O)Nc1nc2ccc(OC)cc2s1)S(C)(=O)=O | -0.33 | i
106 | COCCc1ncc(CN2CCCC(C(=O)Nc3cccc(-c4cccc(C)c4)c3)C2)cn1 (stereo not given) | -0.14 | i
107 | O=C(O)CCn1c(-c2ccccc2)cc2ccccc21 | 0.52 | i
108 | Cc1[nH]c(=O)[nH]c(=O)c1S(=O)(=O)N1CCCC1 | 1.6 | i
109 | CCOC(=O)c1c(/N=C/N(C)C)sc(C=O)c1-c1ccccc1 | 0.21 | i
110 | CCn1c(=O)c(CCC(=O)NCC2CCCO2)c(C)c2c(C)nn(-c3ccccc3)c21 (stereo not given) | 0.39 | i
111 | COC(=O)[C@H](CCSC)NC(=O)N1CCN(Cc2ccccc2)CC1 | 0.14 | i
112 | COc1ccc(CCNC(=O)c2ccc3c(c2)N(Cc2ccc(F)cc2)CCS3)c(OC)c1 | -0.41* | -8.1*
113 | CCc1ccc(N(C(=O)Cc2cccs2)C(C(=O)NC2CCCCC2)c2cn(C)nc2C)cc1 (stereo not given) | 0.58 | i
114 | CCC(=O)N1c2ccc(S(=O)(=O)N3CCN(c4cc(C)ccc4C)CC3)cc2CC1C (stereo not given) | -0.98 | i
115 | CSCCC(NC(=O)c1ccccc1Cl)C(=O)NCCOc1ccccc1 (stereo not given) | -0.41 | i
116 | S=C(NCc1ccc(Cl)cc1Cl)Nc1ccccc1 | 0.83 | i
117 | CN(c1ccccc1)S(=O)(=O)c1cccc(NC(=O)c2cc(=O)c3ccccc3o2)c1 | 1.2 | i
118 | CCOC(=O)Nc1cccnc1Sc1ccc(Cl)cc1 | -0.49 | i
119 | COC(=O)c1sccc1NC(=O)c1c(Cl)cccc1Cl | 0.13 | i

Assay outcomes: PubChem BioAssay, Johns Hopkins Ion Channel Center
